Source: PubChem (several laboratories)
PrP UTR inh = inhibition of PrP 5' UTR reporter expression. AID 488862. 340,000 compounds, 0.35% hits. inhibition, % (test concentration not listed). cell-based PrP 5' UTR mRNA reporter, plate reader;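 active = every replicate at 50% or more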;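 also: 0 = median of the neutral control wells; tested in H4 reporter cells; numbers are from one replicate; inactives centre near -14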
Sa RN4220 lethal = S. aureus RN4220 growth inhibition; OD600, 16 h; inhibition, % (no concentration beside the values); 330,000 compounds, 0.33% hits; AID 1259311;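 active = z-score of -3 or lower and OD600 up to 0.18 on both plates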;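 also: plate controls were untreated cells for no effect and reference antibiotic for full effect; stock transfer was 100 nL into about 80 µL; one replicate is shown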
Mtb hypoxia rep = inhibitors of hypoxia-regulated fluorescent reporter in Mycobacterium tuberculosis | M. tuberculosis hypoxia-regulated fluorescent reporter, fluorescence | AID 1159583 | fluorescence inhibition, % (no concentration beside the values) | 300,000 compounds, 0.1% hits;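 active = 35 to 45% if threefold the growth effect, above 45% if 1.5-fold the growth effect; inactive = the rest, general growth blockers included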;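 also: wells of about 50 µL received 100 nL stock; 0% = vehicle wells and 100% = reference inhibitor wells; whole bacteria with a GFP reporter of the hypoxia response; strong numbers were not always called active; many hits fall short of the cut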
ugtP null kill = kills S. aureus RN4220 lacking UgtP; 330,000 compounds, 0.54% hits; AID 1259309; S. aureus RN4220 ugtP deletion, OD600 growth, 16 h; some inactives read as strong as hits; growth inhibition, % (test concentration not listed);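 active = z-score under -3 and OD600 up to 0.15 on both plates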;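 also: plate controls were untreated wells for no effect and antibiotic for full effect; wells of about 80 µL received 100 nL stock; the first replicate is given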
BJeLR viability = BJeLR cell viability loss. inhibition, % (no concentration beside the values). 300,000 compounds, 0.17% hits. AID 1554. BJeLR (HRASV12) viability, CellTiter-Glo ATP luminescence, 48 h; reference of the scale not given here;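 active = replicate mean above 50%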;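 also: 50 nL library stock added to about 25 µL; numbers are from one replicate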
Autofluor counter = compound fluorescence in toxin protease inhibitor counterscreen. fluorescence intensity (test concentration not listed). 360,000 compounds, 3.1% hits. compound autofluorescence counterscreen, microsphere flow cytometry; active compounds read high;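 active = at least 3 SD above the mean of all compounds, about 16000 in these data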;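 also: 100 nL of 1 mM stock went into each well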
Mtb hypoxia rep growth = recorded beside Mtb hypoxia rep, whose call it bears; growth inhibition, %; measured here: M. tuberculosis growth (absorbance);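 0% = vehicle and 100% = reference antibiotic; read after six days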
Starred values were filed as active, the others as inactive; / = not tested or not shown.

SMILES | PrP UTR inh | Sa RN4220 lethal | Mtb hypoxia rep | Mtb hypoxia rep growth | ugtP null kill | BJeLR viability | Autofluor counter
CC(=O)Nc1cccc(Oc2nc(C)cc(C)c2C#N)c1 | 6 | 2.3 | 6 | 5 | -3 | 5 | 5497
COc1ccc(NC(=O)Cc2ccc(C)c(C)c2)cc1S(=O)(=O)N1CCCCC1 | -3 | -1.3 | 6 | 8 | 0 | / | 3676
O=c1ccc(=O)n(-c2ccccc2)[nH]1 | -29 | 3.8 | -7 | 7 | -1 | -2 | 4856
C=C[C@]1(C)CC(OC(=O)CSCCN(CC)CC)[C@]2(C)C(C)CC[C@]3(CCC(=O)C32)C(C)C1O (stereo not given in full) | / | 101* | / | / | 100* | / | /
O=C(COC(=O)Cc1ccc(Cl)cc1)Nc1ccccc1F | -4 | -2.0 | 2 | 3 | -16 | -2 | 4303
O=C(O)C1Nc2c(C(F)(F)F)ccc(Cl)c2C2C=CCC12 (stereo not given) | 9 | / | / | / | / | -2 | 3213
CCCCOC(=O)Nc1ccc(S(=O)(=O)Nc2nc(C)cc(C)n2)cc1 | -19 | 1.6 | -6 | 10 | 0 | 5 | 10733
CC(=NNC(=O)c1ccncc1)c1cc2ccccc2o1 | / | 1.5 | 0 | 14 | -6 | / | /
COC(=O)C12CCC3(SCCS3)C(C(=O)OC)(CCC13SCCS3)C2 | -7 | 8.8 | 4 | 3 | 20 | 4 | 2206
Cc1cc(-c2nnc(SCC(=O)c3ccc(F)cc3)o2)no1 | -32 | 6.2 | -1 | 6 | -15 | 2 | 2658
O=C(Nn1cnnc1)c1ccccc1-c1ccccc1 | -25 | -1.0 | / | / | 2 | -1 | 4273
O=C(CSc1ncc(C(F)(F)F)cc1Cl)NCC1CCCO1 (stereo not given) | -2 | 2.7 | 0 | 3 | 4 | 2 | 3535
COc1ccc(NC(=O)COC(=O)COc2cccc(Br)c2)cc1OC | -15 | 1.6 | 14 | 9 | 5 | 2 | 4141
Fc1cccc(CCN2CCNC[C@@H]2Cc2ccccc2)c1 | -17 | / | / | / | / | 0 | 3822
NC(=O)C[C@H]1NC(=O)[C@H](CCC(=O)O)NC(=O)c2cc([N+](=O)[O-])cc(I)c2NCCC[C@@H](C(N)=O)NC1=O | -8 | / | / | / | / | -2 | 3716
CC/C(=N\NC(=O)CNC(=O)/C=C/c1ccc(OC)cc1)c1ccccc1 | -12 | / | / | / | / | -5 | 5661
CNC(=O)c1cc2cc(Br)ccc2s1 | -26 | 1.5 | -2 | -5 | -8 | -7 | 4448
Cc1ccc(C(=O)N2C3CN(C)C(=O)[C@@]2(C)C2C(=O)N(C)C(=O)C32)cc1 (stereo not given in full) | / | 3.8 | 15 | 7 | 5 | / | /
O=C(/C=C/c1cccs1)NNC(=O)c1cccc([N+](=O)[O-])c1 | 3 | 0.4 | -1 | 12 | 7 | / | 3782
O=C(NC1CCCC1)C(c1ccccn1)N(C(=O)c1csnn1)C1CC1 (stereo not given) | -7 | -5.0 | -13 | 4 | -1 | 2 | 16748*
Cc1ccc(S(=O)(=O)N2CCCC2C(=O)NCc2ccccc2Cl)cc1 (stereo not given) | -5 | 1.8 | 0 | -2 | 3 | 9 | 4544
CSc1nnc(C(C)(C)C)c(=O)n1N=Cc1ccc(C(C)C)cc1 | / | 1.9 | 4 | 10 | 11 | / | /
CNC(=O)c1ccccc1Sc1ccccc1CO | -9 | -0.7 | 1 | 0 | 13 | 2 | /
Cc1ccc(C)c(-n2c(=O)c(C#N)cc3c(=O)n4ccccc4nc32)c1 | -14 | 1.9 | -11 | 4 | -2 | 8 | 3644
O=C(CN1CCN(CCC(=O)Nc2ccccc2F)CC1)Nc1ccc(Cl)cc1 | 6 | 0.0 | / | / | 1 | 0 | 2170

The final four compounds of the part above come first, to join the parts.
SMILES | PrP UTR inh | Sa RN4220 lethal | Mtb hypoxia rep | Mtb hypoxia rep growth | ugtP null kill | BJeLR viability | Autofluor counter
CSc1nnc(C(C)(C)C)c(=O)n1N=Cc1ccc(C(C)C)cc1 | / | 1.9 | 4 | 10 | 11 | / | /
CNC(=O)c1ccccc1Sc1ccccc1CO | -9 | -0.7 | 1 | 0 | 13 | 2 | /
Cc1ccc(C)c(-n2c(=O)c(C#N)cc3c(=O)n4ccccc4nc32)c1 | -14 | 1.9 | -11 | 4 | -2 | 8 | 3644
O=C(CN1CCN(CCC(=O)Nc2ccccc2F)CC1)Nc1ccc(Cl)cc1 | 6 | 0.0 | / | / | 1 | 0 | 2170
Cc1cccc(OCCCC(=O)NC(C)C)c1 | -21 | -2.7 | / | / | -3 | 7 | 2480
Cc1cc(Cl)cc(C)c1OCCn1ccnc1 | / | 2.2 | 3 | 2 | -1 | -2 | 3863
COC(=O)c1sccc1NC(=O)CN(C)NS(=O)(=O)c1ccc(Cl)cc1 | -9 | 1.5 | 15 | 8 | 1 | 7 | 4361
O=C(Cn1[nH]c(=O)c2ccccc2c1=O)Nc1cccc(-c2nnc3n2CCCCC3)c1 | -12 | -1.9 | 3 | 8 | -3 | / | 11005
Cc1ccc(S(=O)(=O)CC(=O)NC2CC2)cc1 | -21 | -1.0 | / | / | 2 | 9 | 4759
N#CC(C#SN)=C1CCCCC1 | -24 | 3.1 | / | / | 1 | 0 | 3190
CCN(c1ccccc1)S(=O)(=O)c1ccc(C(=O)Nc2ncccc2O)cc1 | -17 | 5.2 | 0 | 11 | -11 | 6 | 5612
COCC(=O)Nc1cccc(-c2ccc3nncn3n2)c1 | -2 | -0.4 | -12 | 8 | 1 | -9 | 5646
CCOc1c(Cl)cc(CNCCc2c[nH]c3ccccc23)cc1OC | -6 | -4.3 | 5 | 12 | 1 | -6 | 5939
O=C(NCc1cccnc1)c1cccc(C(F)(F)F)c1 | -13 | -1.6 | -14 | -4 | -3 | -17 | 8301
COC(CNC(=O)CCCn1nnnc1CN1CCOCC1)c1cccs1 (stereo not given) | 4 | -2.1 | -7 | 0 | -4 | 0 | 5592
O=C(Nc1cccc(-c2cccc(F)c2)c1)C1CCN(C2CCOCC2)CC1 | -6 | 1.2 | 12 | 10 | -2 | -6 | 6483
O=C(OCc1ccc([N+](=O)[O-])cc1)c1ccc2ccccc2n1 | -25 | 3.1 | 6 | 6 | 4 | 0 | 6153
CCCC(=O)Nc1nc(-c2ccc3c(c2)CCN3S(C)(=O)=O)cs1 | -38 | 5.0 | 6 | 6 | 1 | 10 | 13219
CCOc1[nH]n(-c2ccccc2)c(=O)c1C=Nc1ccc(OC)cc1 | -17 | -6.7 | -8 | -10 | -11 | -8 | 2216
O=C(O)c1cc(N2C(=O)CCC2=O)ccc1NCc1cccnc1 | -19 | 0.7 | -2 | -1 | -3 | -5 | 5658
CC1(C)Cc2noc(N)c2C(C)(C)N1OC(=O)c1scc2c1OCCO2 | -5 | -5.4 | -2 | 3 | -5 | -3 | 3440
Cc1cnc(NC(=O)CN2CCN(c3ccccn3)CC2)s1 | -13 | -0.6 | / | / | 6 | 7 | 6054
c1ccc(SCCCCN2CCOCC2)cc1 | -17 | 8.3 | 5 | 3 | 7 | 1 | 3750
N#Cc1ccc(OCC(=O)N2CCN(Cc3ccc4c(c3)OCO4)CC2)cc1 | -10 | 6.8 | -6 | 8 | 5 | -1 | 3951
CN(C)c1cccc(C(=O)NNC(=S)NC2CCCC2)c1 | -38 | -0.4 | 9 | 17 | 3 | 1 | 4159
CCNC(=S)NNC(=O)c1csc2c1CCCC2 | -15 | 5.2 | 13 | 6 | 17 | -5 | 15816
CCCC(=Nc1ccccc1OC)C1=C(O)CC(c2ccccc2)CC1=O (stereo not given) | -3 | -0.6 | 5 | 20 | 5 | 11 | 2410
COc1cc(/C=C(/C(=O)O)c2ccc(-c3ccccc3)cc2)cc(OC)c1OC | -16 | 12 | -6 | 0 | -5 | 0 | 6557
COC(=O)C(NC(C)=O)(Nc1nc2c(C)cc(C)cc2s1)C(F)(F)F (stereo not given) | -7 | -2.9 | / | / | 6 | 0 | 4220

The results go on:
SMILES | PrP UTR inh | Sa RN4220 lethal | Mtb hypoxia rep | Mtb hypoxia rep growth | ugtP null kill | BJeLR viability | Autofluor counter
COc1cc(-c2cc(C(=O)Nc3cccc(S(=O)(=O)N(C)C)c3)c3ccccc3n2)cc(OC)c1OC | -28 | -2.1 | 3 | -5 | 6 | 4 | 3572
CNC(=O)CCC(=O)Nc1ccc(C(=O)OC)cc1 | -23 | 1.3 | / | / | 2 | 10 | 3068
COc1cccc(C(=O)NCC(=O)N/N=C(\C)Cc2ccccc2)c1 | -15 | / | / | / | / | -1 | 5922
Cc1ccc2oc(-c3ccc(NC(=O)CC(C)C)cc3)nc2c1 | -135 | 1.5 | 1 | -8 | -5 | 8 | 9375
Oc1ccc(C2C=C(c3ccc(F)cc3)Nc3ncnn32)cc1 (stereo not given) | -10 | 5.5 | -7 | -2 | -10 | -3 | 5243
Cc1ccc(N2C(=O)C3CCC(C)(C2=O)C3(C)C)cc1 (stereo not given) | -10 | 3.2 | 16 | 5 | 4 | 6 | 5881
Cc1ccc(S(=O)(=O)NCCn2nc(C)cc2C)cc1 | -2 | 4.5 | 4 | 1 | 0 | -8 | 6233
O=C(CC1CC=CCCCC(=O)OCC(c2ccccc2)NC1=O)NCCO (stereo not given) | / | 3.2 | 11 | 10 | 0 | / | /
O=C(CCc1ccccc1)NC1CCS(=O)(=O)C1 (stereo not given) | -4 | 4.0 | 6 | -5 | 15 | / | /
N#CCn1c(C2CCCCC2)nc2ccccc2c1=O | 4 | -3.1 | 24 | 5 | 62 | 2 | 4257
COc1ccc(Nc2nccc3c2nnn3C)cc1 | -70 | 2.4 | 11 | 8 | 5 | -8 | 9326
COc1ccc(CCN=C(N)NS(=O)(=O)c2cccs2)cc1 | -25 | 3.3 | 0 | 6 | 1 | -4 | 2252
O=C1C2C3CC(C(Br)C3Br)C2C(=O)N1c1ccccn1 (stereo not given) | -27 | 3.3 | 20 | 6 | 5 | -1 | 4335
O=C(CN1C(=O)S/C(=C\c2ccc(Cl)cc2)C1=O)NCCCn1ccnc1 | 0 | 8.8 | 2 | -2 | 15 | 3 | 4043
CCCc1cc(C(=O)Nc2cc(C)nn2-c2ccccc2)no1 | -26 | 0.8 | 4 | 4 | 3 | 4 | 5555
NS(=O)(=O)c1cccc(NC(=O)CSc2nc3ccc(Cl)cc3[nH]2)c1 | -12 | -1.7 | 6 | 7 | 4 | 10 | 4637
Cc1nc(NC(C)c2ccccc2)c2oc3ccccc3c2n1 (stereo not given) | -41 | -1.3 | 2 | 2 | -15 | 6 | 3373
OC(Cn1cncn1)(c1ccccc1)c1ccccc1 | -22 | 0.3 | / | / | 7 | 3 | 4376
Cn1c(N)c(C(=O)c2ccc(F)cc2F)c(=O)n(C)c1=O | 0 | 7.1 | 5 | 8 | 11 | -11 | 2456
CCC1Oc2ccccc2N(CC(=O)NC2CCCC2)C1=O (stereo not given) | -13 | 0.6 | 0 | 2 | 30 | 2 | 4535
N#Cc1nc(COc2ccc(Br)cc2)oc1NCCCn1ccnc1 | -17 | 3.0 | -8 | -8 | -3 | -5 | 2858
CC(C)CCNC(=O)C1CCCN1C(=O)NC1CCCCC1 (stereo not given) | -18 | -4.0 | 17 | 7 | 3 | -3 | 3203
COc1ccc(NC(=O)COC(=O)C2CCN(S(=O)(=O)c3cccs3)CC2)cc1OC | -10 | 3.0 | -9 | 2 | -4 | / | 3991
CCOC(=O)c1ccc(CNCc2ccc(Br)cc2)cc1 | -13 | 7.6 | 8 | 2 | 5 | -3 | 8050
Cc1cc(C)nc(SCc2ccc(C(=O)NN=Cc3ccco3)cc2)n1 | / | 3.9 | 15 | 2 | 0 | / | /
COc1ccc(CCN2CC(C(=O)N(C)CCc3cn[nH]c3)CCC2=O)cc1 (stereo not given) | -24 | 5.7 | 8 | 2 | 1 | -10 | 5048
CN(C)/C=C1/N=C(c2ccccc2)OC1=O | -6 | -0.5 | / | / | 3 | 3 | 3737
CCSC1=C(C#N)C(c2ccccc2OC)CC(=O)N1 (stereo not given) | -7 | 3.6 | 8 | 3 | 16 | -1 | 4186
CN1CCN(C2=C(Cl)C(=O)N(c3cccc(Cl)c3)C2=O)CC1 | -26 | -3.9 | 11 | 6 | -12 | -7 | 8921
CC(C)[C@H](NS(=O)(=O)c1ccc2c(c1)OCCO2)C(=O)OCC(=O)Nc1cc(Cl)ccc1Cl | -10 | 0.6 | / | / | -16 | 20 | 2448

Compounds were not picked by outcome (roughly 4% active in at least one column).
